MgrA DNA FP = modulators of Staphylococcus aureus MgrA DNA binding; fluorescence polarization; inhibition, %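 (about 10 µg/mL by stock and volumes)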; 84,000 compounds, 0.13% hits; AID 602314;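 active means above 50% in either of two replicates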;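 further: 0% = protein plus DNA without compound and 100% = DNA alone without protein; higher means less MgrA bound to DNA so lower polarization; one replicate is shown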
Sa helicase inh = S. aureus DNA helicase inhibition; 120,000 compounds, 0.05% hits; inhibition, %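 (tested at about 80 µM)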; purified S. aureus helicase, fluorescence unwinding assay; about half of the hits fall short of the stated cut; AID 485395;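 active means both duplicates at 50% or more, or one of them with a favoured structure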;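 further: 0% = mean of negative control wells and 100% = mean of positive control wells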
* hit, by the source's call. These rows are one share of the data; count on the stated rates, not on these rows.

What do the screens show for `CC1CCCCC1NS(=O)(=O)c1cc(F)ccc1CN1C(=O)c2cccnc2C1=O` (stereo not drawn)?
Sa helicase inh: -26

How did CC1(C)CC2=NN(c3ccccc3)P(=O)(Nc3ccccc3)C2=C(N2CCOCC2)C1 (stereo not drawn) do in these assays?
Sa helicase inh: 9

What do the screens show for `COc1ccc2[nH]cc(CCSC(=N)N)c2c1`?
Sa helicase inh: 7

Results for CC(C)Cn1cc(C(=O)N2CCN(c3ccccc3F)CC2)c2c3ccccc3n(C)c2c1=O ?
Sa helicase inh: -34

What do the screens show for `O=C(CCN1N=C(c2ccccc2)CCC1=O)NCc1ccccc1Cl`?
Sa helicase inh: 13

Results for Cc1ccc(C(=O)COc2ccc(-c3cnc4ccccc4n3)cc2)cc1 ?
Sa helicase inh: 12

Results for O=C(Nc1nc2ccc(Cl)cc2s1)C1CCCCC1 ?
Sa helicase inh: 12

How did Cc1cc(C)c(NC(=S)NN)c(C)c1 do in these assays?
MgrA DNA FP: -1.4

How did COc1ccc(OC)c(NC(=S)N(CCc2c(C)[nH]c3ccc(F)cc23)Cc2ccco2)c1 do in these assays?
MgrA DNA FP: 4.3; Sa helicase inh: 14

What do the screens show for `CN(Cc1ccccc1)C(=O)Cn1ncc2c3ccccc3n(C)c2c1=O`?
Sa helicase inh: -17

What do the screens show for `CC(OC(=O)c1ccc(S(=O)(=O)N2CCCc3ccccc32)cc1)C(=O)NCc1ccco1` (stereo not drawn)?
Sa helicase inh: -10

How did COC(=O)CN1C(=O)Nc2ccc(Cl)cc2C1c1ccccc1 (stereo not drawn) do in these assays?
MgrA DNA FP: 1.2; Sa helicase inh: 12

What do the screens show for `Cn1cnc2cc(NC(=O)C3CCCCC3)ccc21`?
MgrA DNA FP: 3.8; Sa helicase inh: 10

How did CCN(CC)c1ccc(NS(=O)(=O)c2cccs2)cc1 do in these assays?
MgrA DNA FP: -0.2

How did O=C1C2C(C(=O)N1/N=C/c1ccc(N3CCCCC3)o1)C1C=CC2C12CC2 (stereo not drawn) do in these assays?
MgrA DNA FP: 3.5; Sa helicase inh: 6

What do the screens show for `CCN(CC)c1nc(N)c2c(N)nc3c(c2c1C#N)C(=O)CN3Cc1ccccc1`?
Sa helicase inh: -14

Results for Cc1cccc2nc(CSC(=S)NCC3CCCO3)cn12 (stereo not drawn) ?
Sa helicase inh: -29

What do the screens show for `Cc1nc(-c2ccc(F)cc2)c(CC(=O)N(Cc2ccco2)Cc2cccs2)s1`?
Sa helicase inh: -13

What do the screens show for `CCOC(=O)c1c(-c2ccccc2)oc2ccc(OC(C)C(=O)OC)cc12` (stereo not drawn)?
Sa helicase inh: -11

What do the screens show for `Cc1onc(-c2c(F)cccc2Cl)c1C(=O)N1CCSCC1`?
MgrA DNA FP: 2.8

Results for CN1C/C(=C\C=C\c2ccccc2)C(=O)/C(=C/C=C/c2ccccc2)C1 ?
MgrA DNA FP: -0.8

How did Cc1ccccc1C(=O)N1CCC(C(=O)N2C(=O)c3cccc(N)c3C2=O)CC1 do in these assays?
Sa helicase inh: 16

What do the screens show for `O=C(c1ccc2c(=O)n3c(nc2c1)CCC3)N(Cc1ccco1)Cc1cccs1`?
Sa helicase inh: 5

What do the screens show for `CCOC(=O)C1(Cc2ccc(O)cc2)NC(c2ccco2)C2C(=O)N(c3ccccc3F)C(=O)C21` (stereo not drawn)?
MgrA DNA FP: 1.8; Sa helicase inh: -4

How did COC(=O)COc1c(C(=O)OC)sc2ccccc12 do in these assays?
MgrA DNA FP: -1.4

How did Cc1nn(-c2ccccc2)c2sc(C(=O)NC(=S)NCc3ccco3)cc12 do in these assays?
MgrA DNA FP: 2.1; Sa helicase inh: -2

How did C=CCOC(=O)C1=C(C)NC2=C(C(=O)CC(c3ccc(OC)cc3)C2)C1c1cc2c(cc1Cl)OCO2 (stereo not drawn) do in these assays?
MgrA DNA FP: 1.0

How did CCN(c1ccc(NC(=O)CN(C)Cc2ccccc2)cc1)C(C)C do in these assays?
Sa helicase inh: 20

How did CN(C)C(CNC(=O)c1cc2ccccc2o1)c1ccco1 (stereo not drawn) do in these assays?
Sa helicase inh: -10

What do the screens show for `Cc1noc(C)c1COC(=O)[C@@H](NC(=O)Cc1cccc2ccccc12)C(C)C`?
Sa helicase inh: 2

How did NC(=S)Nc1ccncc1 do in these assays?
MgrA DNA FP: -1.1

Results for CC(C)c1ccc(NC(=O)c2coc(=O)c3ccccc23)cc1 ?
MgrA DNA FP: 0.8; Sa helicase inh: 7

How did CCSc1nnc(NC(=O)CSC2=NCCS2)s1 do in these assays?
Sa helicase inh: 2

What do the screens show for `COC(=O)CC1(c2ccc(Cl)cc2)C(=O)c2ccccc2C1=O`?
MgrA DNA FP: 1.9; Sa helicase inh: 9

How did S=c1[nH]nc(Nc2ccccc2)s1 do in these assays?
MgrA DNA FP: 2.5

Results for CCOC(=O)c1cc(S(=O)(=O)NC2CCCc3ccccc32)cn1C (stereo not drawn) ?
Sa helicase inh: -29

How did N#Cc1cc2c(nc1SCC(=O)Nc1ccc(S(=O)(=O)Nc3ncccn3)cc1)CCC2 do in these assays?
MgrA DNA FP: 3.5; Sa helicase inh: 3

Results for CCN1CCN(C(C)C(=O)NC(c2ccccc2)c2ccccc2)CC1 (stereo not drawn) ?
MgrA DNA FP: -6.8; Sa helicase inh: 7

Results for Fc1ccccc1Nc1nn(CN2CCCC2)c(=S)s1 ?
Sa helicase inh: -2

What do the screens show for `Cc1cccc(C)c1NC(=O)CCCSc1nnc(-c2ccccc2)o1`?
Sa helicase inh: -3

Sorted by molar mass (ascending): three of the compounds above
How did NC(=S)Nc1ccncc1 do in these assays?
MgrA DNA FP: -1.1

Results for Fc1ccccc1Nc1nn(CN2CCCC2)c(=S)s1 ?
Sa helicase inh: -2

What do the screens show for `COC(=O)CC1(c2ccc(Cl)cc2)C(=O)c2ccccc2C1=O`?
MgrA DNA FP: 1.9; Sa helicase inh: 9

(next part)
What do the screens show for `O=C(Nc1nc(-c2ccccn2)cs1)c1ccc(Br)s1`?
Sa helicase inh: -14

What do the screens show for `Cc1cccc(CCNC(=S)Nc2ccc3nc4n(c(=O)c3c2)CCCCC4)c1`?
MgrA DNA FP: -3.8; Sa helicase inh: 2

Results for O=C(/C=C1\Sc2ccccc2NC1=O)NCCN1CCN(c2ccccc2)CC1 ?
Sa helicase inh: 13

Results for O=c1[nH]c(N2CCc3ccccc32)nc2c1CCCC2 ?
MgrA DNA FP: -0.6; Sa helicase inh: -1

Results for COc1cc(C2NC(=O)NC(C)=C2C(=O)OC2CCCC2)ccc1OCc1ccccc1 (stereo not drawn) ?
MgrA DNA FP: -1.6

Results for CCOC(=O)c1[nH]c(Cc2[nH]c(C(=O)OCC)c(C)c2CC(=O)OC)c(CCC(=O)OC)c1C ?
MgrA DNA FP: -0.4; Sa helicase inh: 4

Results for COc1ccc(C(=O)COc2c(F)c(F)cc(F)c2F)c(OC)c1 ?
Sa helicase inh: -1

Results for O=C(CSCc1ccc(F)cc1)Nc1ccc(N2CCOCC2)cc1N1CCOCC1 ?
Sa helicase inh: 10

Results for O=C(CSC1CCCCC1)N1CCCCC1 ?
Sa helicase inh: 10

What do the screens show for `CCOc1ccc(CCNc2nnc3c4ccccc4n(CC)c3n2)cc1`?
MgrA DNA FP: 0.4; Sa helicase inh: -8

What do the screens show for `CCOc1ccc(CN(CCc2ccc3c(c2)OCO3)Cc2cccnc2)cc1`?
Sa helicase inh: 21

Results for CS(=O)(=O)c1sc(C(N)=O)c2c1C=CCC2 ?
MgrA DNA FP: -0.3

How did CC(Oc1ccc2c3c(c(=O)oc2c1)CCC3)C(=O)O (stereo not drawn) do in these assays?
Sa helicase inh: 18

How did CCOC(=O)c1cnn(C(=O)c2ccccc2Cl)c1N do in these assays?
Sa helicase inh: -10

How did Cc1cc(C)c(C)c(S(=O)(=O)N2CCN(CN3C(=O)CCSC3=O)CC2)c1C do in these assays?
Sa helicase inh: 17

Results for COc1ccc(C(=O)Nn2c(-c3ccc(Br)cc3)nc3ccccc3c2=O)cc1OC ?
MgrA DNA FP: 2.8

Results for Clc1ccc(C2=CSC3=NCCCN23)cc1 ?
MgrA DNA FP: -1.2

What do the screens show for `O=C(O)CSCCn1cccn1`?
MgrA DNA FP: 1.7; Sa helicase inh: -5

What do the screens show for `CC1CN(C(=O)Cc2cccs2)CC(C)O1` (stereo not drawn)?
Sa helicase inh: 4

What do the screens show for `O=c1c2ccccc2cnn1CCO`?
MgrA DNA FP: -1.8

Results for CC1=C(C(=O)Nc2cccc(C(=O)N3CCN(C4CCCCC4)CC3)c2)SCCO1 ?
Sa helicase inh: 6

How did Cc1cccc(-n2cnc3cc(C(=O)NCC4CCCO4)ccc32)c1 (stereo not drawn) do in these assays?
MgrA DNA FP: 1.9; Sa helicase inh: 10

Results for COc1ccc(C(=O)/C=C/Sc2nccc(C)n2)cc1 ?
Sa helicase inh: 19

Results for COc1ccc(N=C2C(=O)Nc3ccccc32)cc1 ?
Sa helicase inh: 22

Results for CC1CCCCN1C(=O)CC(=O)N1CCCCC1C (stereo not drawn) ?
MgrA DNA FP: -1.5; Sa helicase inh: 9

How did CC(C)(CC(=O)O)CC(=O)Nc1ccc(Cl)cc1Cl do in these assays?
MgrA DNA FP: -6.5

Results for Cc1ccc(NC(=O)c2cc3ccccc3oc2=N)cc1 ?
MgrA DNA FP: -0.4; Sa helicase inh: 3

What do the screens show for `Cc1cccc2cc(CNCc3ccco3)c(=O)[nH]c12`?
MgrA DNA FP: 3.5; Sa helicase inh: 4

How did CC1CCCC(NC(=O)Cn2ncc3c(Cl)cccc32)C1C (stereo not drawn) do in these assays?
MgrA DNA FP: -0.3; Sa helicase inh: 9

Results for Cc1ccc(S(=O)(=O)/N=C(/Nc2nc(C)cc(C)n2)N2CCc3ccccc32)cc1 ?
MgrA DNA FP: -1.4; Sa helicase inh: 14

What do the screens show for `CC(=O)Nc1ccc(S(=O)(=O)NCCC(=O)N2CCN(c3cccc(C(F)(F)F)c3)CC2)cc1`?
Sa helicase inh: -3

What do the screens show for `O=C(CNCCN1CCOCC1)N1CCc2ccccc2C1`?
Sa helicase inh: -3

Results for Clc1cc2c(c(C[n+]3ccccc3)c1)OCOC2 ?
MgrA DNA FP: 0.1

Results for O=C(O)c1ccccc1I ?
MgrA DNA FP: -1.7

How did OCC(O)C(O)C(O)c1cnc2ccccc2n1 (stereo not drawn) do in these assays?
Sa helicase inh: 24

How did COC(=O)C1=C(N)Oc2cc(N(C)C)ccc2C1c1ccccc1OC (stereo not drawn) do in these assays?
Sa helicase inh: 5

How did O=c1cc(CSc2nc3ccccc3[nH]2)nc2sccn12 do in these assays?
Sa helicase inh: 14

How did CCSc1nnc2n(-c3ccccc3)c(=O)c3c4c(sc3n12)CCCC4 do in these assays?
MgrA DNA FP: -30; Sa helicase inh: 7

Results for COc1ccc(CNC(=O)c2ccc3c(c2)OCCO3)cc1 ?
MgrA DNA FP: 1.0; Sa helicase inh: -26

What do the screens show for `O=S(=O)(/C=C/c1ccccc1)N1CCN(c2ncnc3sccc23)CC1`?
Sa helicase inh: -7

Results for O=c1[nH]cnc2[nH]ncc12 ?
MgrA DNA FP: 2.5

What do the screens show for `Cc1cc(Br)c2c(c1)/C(=C1/SC(=S)N(N)C1=O)C(=O)N2C`?
MgrA DNA FP: 1.1; Sa helicase inh: 23

Results for CCN(C(=O)CSc1nnc(COc2ccccc2)o1)c1ccccc1 ?
MgrA DNA FP: 6.2; Sa helicase inh: 9

How did Cc1cc(C)n(CN2CCN(C(=O)c3cccs3)CC2)c(=S)c1C#N do in these assays?
Sa helicase inh: 6

What do the screens show for `CCCCC[C@H](O)/C=C/C1=C(C/C=C\CCCC(=O)O)C(=O)CC1`?
MgrA DNA FP: -1.4

Results for O=C(c1ccco1)N1CCN(C(=O)c2cccc3c2C(=O)N(C2CCCCC2)C3)CC1 ?
MgrA DNA FP: 0.1; Sa helicase inh: -8

Results for COc1ccc(/C=C2/SC(=O)N(CCC(=O)Nc3ccc(C)cc3)C2=O)cc1OC ?
MgrA DNA FP: 2.6

How did O=C(CCN1C(=O)c2ccccc2C1=O)Oc1cccc2cccnc12 do in these assays?
Sa helicase inh: -8

Results for O=C(O)/C=C/c1ccc(OCc2cn3ccccc3n2)cc1 ?
Sa helicase inh: -4

How did CC1SC(C)C(=O)N(CC(=O)NCc2ccco2)C1=O (stereo not drawn) do in these assays?
Sa helicase inh: 10

How did Clc1ccc(-c2csc(-c3ccno3)n2)cc1Cl do in these assays?
Sa helicase inh: -15

Results for CC(C)N1C(=O)CN(NC(=O)c2cc3c(s2)CCCC3)C1=O ?
MgrA DNA FP: 2.0; Sa helicase inh: -10

What do the screens show for `Cc1occc1C(=O)N=Nc1cc(C(C)(C)C)c(O)c(C(C)(C)C)c1`?
MgrA DNA FP: 9.4; Sa helicase inh: 7

Of the compounds above, these contain a Cl atom.
What do the screens show for `O=C(CCN1N=C(c2ccccc2)CCC1=O)NCc1ccccc1Cl`?
Sa helicase inh: 13

Results for O=C(Nc1nc2ccc(Cl)cc2s1)C1CCCCC1 ?
Sa helicase inh: 12

How did COC(=O)CN1C(=O)Nc2ccc(Cl)cc2C1c1ccccc1 (stereo not drawn) do in these assays?
MgrA DNA FP: 1.2; Sa helicase inh: 12

What do the screens show for `Cc1onc(-c2c(F)cccc2Cl)c1C(=O)N1CCSCC1`?
MgrA DNA FP: 2.8

How did C=CCOC(=O)C1=C(C)NC2=C(C(=O)CC(c3ccc(OC)cc3)C2)C1c1cc2c(cc1Cl)OCO2 (stereo not drawn) do in these assays?
MgrA DNA FP: 1.0

What do the screens show for `COC(=O)CC1(c2ccc(Cl)cc2)C(=O)c2ccccc2C1=O`?
MgrA DNA FP: 1.9; Sa helicase inh: 9

How did CCOC(=O)c1cnn(C(=O)c2ccccc2Cl)c1N do in these assays?
Sa helicase inh: -10

Results for Clc1ccc(C2=CSC3=NCCCN23)cc1 ?
MgrA DNA FP: -1.2

How did CC(C)(CC(=O)O)CC(=O)Nc1ccc(Cl)cc1Cl do in these assays?
MgrA DNA FP: -6.5

How did CC1CCCC(NC(=O)Cn2ncc3c(Cl)cccc32)C1C (stereo not drawn) do in these assays?
MgrA DNA FP: -0.3; Sa helicase inh: 9

Results for Clc1cc2c(c(C[n+]3ccccc3)c1)OCOC2 ?
MgrA DNA FP: 0.1

How did Clc1ccc(-c2csc(-c3ccno3)n2)cc1Cl do in these assays?
Sa helicase inh: -15
